LASV entry inh: blocks Lassa virus binding to or entry into cells; Lassa virus pseudotype entry inhibition, cell reporter; control for the full effect not named in the record; Potency, µM (series often up to 37.9 µM), inactives show at the highest dose activity change, negative = inhibition, actives largely listed as inhibitors; 1.2% of 300,000 active; active means well fitted inhibition curve with a large enough effect; inconclusive means small, poorly fitted or top-dose-only effect, or effect the other way; inactive means flat fitted curve, though single readings scatter; tested in HEK293 cells; note: % is set by controls: 0 for no effect and ±100 for the full control effect; nearly all actives have a fitted effect of over 50% in size; luciferase read-out
Cruzain inh noDet: inhibitors of Trypanosoma cruzi cruzain without detergent; P25779; purified cruzain, Z-FR-AMC fluorescence, no detergent; Potency, µM, for the others: max response, negative = inhibition, hits mostly inhibitors; 2.3% of 200,000 active;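 note: plate controls were enzyme without inhibitor for no effect and buffer without enzyme for full effect; nearly all actives have a fitted effect of over 40% in size; top concentration of the series not given in the record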
Target sequence (P25779 123-467 limits assumed): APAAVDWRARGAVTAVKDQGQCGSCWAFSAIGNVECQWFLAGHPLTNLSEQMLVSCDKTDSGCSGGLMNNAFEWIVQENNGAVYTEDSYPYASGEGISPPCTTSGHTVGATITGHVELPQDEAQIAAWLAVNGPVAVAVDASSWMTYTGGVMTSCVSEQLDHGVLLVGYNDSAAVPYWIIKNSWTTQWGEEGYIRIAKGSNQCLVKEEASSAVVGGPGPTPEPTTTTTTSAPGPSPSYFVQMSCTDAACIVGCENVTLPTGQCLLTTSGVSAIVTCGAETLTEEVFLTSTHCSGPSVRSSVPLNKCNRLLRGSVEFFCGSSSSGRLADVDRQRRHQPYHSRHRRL
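Detergent-free condition (0.00005% Triton X-100) in acetate buffer pH 5.5 with DTT. 1.5 nM enzyme and compound were pre-mixed 15 min, then 2 uM Z-FR-AMC substrate added; reaction progress from fluorescence change between first and third reads (60 s).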
RE007 growth inh: less growth of the S. pombe RE007 Vpr strain. S. pombe RE007 Vpr strain, BacTiter-Glo ATP luminescence, 24 h; control for the full effect not named in the record. Potency, µM (series often up to 92.2 µM), for inactives: at the highest dose activity change, negative = less growth. 0.21% of 360,000 active; active = well fitted falling curve with a large enough effect; inconclusive = small, poorly fitted or top-dose-only effect; inactive = no such curve, though single readings can be large or run the other way;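 note: % is set by controls: 0 for no effect and ±100 for the full control effect; nearly all actives have a fitted effect of over 50% in size; the assay follows cell death caused by Vpr and the record does not say whether a fall means rescue or toxicity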
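Fission yeast strain RE007, carrying one chromosomally integrated HIV-1 vpr copy, was seeded at OD 0.01 in PMG+AL medium with 23 nL pinned compound. After 24 h at 30 °C and 99% humidity, viability was read by BacTiter-Glo luminescence.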
SARS PLP yeast: blocks SARS-CoV papain-like protease in a yeast assay. Potency, µM (titrated, usually from 32.9 µM), without a hit: at the top dose activity, positive = growth rescue. AID 485353. 0.19% of 330,000 active. S. cerevisiae expressing SARS-CoV PLpro, growth rescue; control for the full effect not named in the record; active means well fitted rising curve with a large enough effect; inconclusive means small, poorly fitted or top-dose-only effect; inactive means no such curve, though single readings can be large or run the other way; note: 0% is about no effect; nearly all actives have a fitted effect of over 55% in size; growth read by luminescence after 48 h
2A StopGo: FMDV 2A StopGo reporter, luciferase signal | human cells with a luciferase reporter of 2A StopGo recoding; control for the full effect not named in the record | Potency, µM (top dose mostly 57.9 µM), without a hit: at the top dose signal change, negative = less light | 1.2% of 410,000 active | AID 1159524; active = well fitted falling curve with a large enough effect; inconclusive = small, poorly fitted or top-dose-only effect; inactive = no such curve, though single readings can be large or run the other way; tested in HEK293T cells; note: % is set by controls: 0 for no effect and ±100 for the full control effect; nearly all actives have a fitted effect of over 45% in size; luciferase light after 4 h
NS1 inh: inhibitors of influenza NS1 protein function; S. cerevisiae slowed by influenza A NS1, growth recovery by OD600; AID 2326; Potency, µM (series often up to 46.1 µM), for the others: at the highest dose activity, positive = more growth; 0.4% of 270,000 active; active means well fitted rising curve with a large enough effect; inconclusive means small, poorly fitted or top-dose-only effect; inactive means no such curve, though single readings can be large or run the other way; note: nearly all actives have a fitted effect of over 50% in size
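A cell-based growth assay was used: compounds that relieve NS1-induced slow growth of budding yeast raise OD600. Assay medium was yeast nitrogen base with ammonium sulphate and -URA supplement, pH 6.0, with 2% galactose.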
Marburg entry inh: blocks Marburg virus binding to or entry into cells; Marburg virus pseudotyped entry inhibition, cell reporter; control for the full effect not named in the record; about a third of the inactives were read at about 46 µM; Potency, µM (series often up to 37.8 µM), for inactives: top-dose activity change, negative = inhibition, most hits filed as inhibitors; 1.8% of 300,000 active; AID 540276; active = well fitted inhibition curve with a large enough effect; inconclusive = small, poorly fitted or top-dose-only effect, or effect the other way; inactive = flat fitted curve, though single readings scatter; tested in HEK293 cells; about a fifth of its hits are not listed in these tables; note: % is set by controls: 0 for no effect and ±100 for the full control effect; luciferase read-out
Cruzain Triton: blocks cruzain activity in presence of Triton detergent. purified cruzain, Z-FR-AMC fluorescence, 0.01% Triton. 0.43% of 200,000 active. AID 1478. Potency, µM, for inactives: max response, negative = inhibition, actives largely listed as inhibitors;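 note: plate controls were neutral wells for no effect and buffer without enzyme for full effect; nearly all actives have a fitted effect of over 40% in size; top concentration of the series not given in the record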
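Sodium acetate buffer (100 mM, pH 5.5) containing 5 mM DTT and 0.01% Triton X-100 hosted 1.5 nM cruzain and test compound for 15 min at room temperature. Cleavage of 2 uM Z-FR-AMC was then tracked by fluorescence.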
The depositor's hits bear a star; ? = inconclusive; . = no result given; & = joins results of further samples; [ ] = another dose, or the depositor's remark. Unless noted, calls come from the whole dose curve; as a rule, active = well fitted curve in the direction sought with a large enough effect; inconclusive = small, poorly fitted or top-dose-only effect, or another doubt; inactive = no such curve, though single readings can be large; an effect the other way counts as inactive or inconclusive. Potency is the fitted concentration of half-maximal effect.

compound,LASV entry inh,Cruzain inh noDet,RE007 growth inh,SARS PLP yeast,2A StopGo,NS1 inh,Marburg entry inh,Cruzain Triton
CCOC(=O)Cn1c(=NC(=O)c2ccc([N+](=O)[O-])s2)sc2ccccc21,-9%,-13%,-14%,-57%,0%,-34%,4%,-4.1%
O=C(C1CC(=O)N(c2ccccc2)C1)N1CCN(c2ccccc2F)CC1 (stereo unspecified),-8%,.,8%,4%,4%,3%,?,.
N#C/C(=C/C1=C(N2CCOCC2)C(=C/c2ccccc2)/CC1)C(=O)Nc1ccccc1F,-19%[46.1 µM],.,-5%,.,?,.,0%[46.1 µM],.
N#CC1(NC(=O)Cn2cc(C(F)(F)F)ccc2=O)CCCC1,-1%,.,2%,1%,-7%,.,13%,.
COc1cc(-c2noc(C)c2C#Cc2nccn2C)cc(OC)c1OC,.,.,-3%,-6%,-12%,-31%,.,.
COc1ccc(NC(=O)c2c(-c3ccc(C)cc3)nnc3ccccc23)c(OC)c1,0%[46.1 µM],-2%,.,.,3%,.,.,-2.7%
Cc1ccc(SCC(=O)NC(=O)Nc2ccc3c(c2)OCCO3)cc1C,2%,-1%,-2%,-3%,-21%,2%,?,-3.3%
Cc1ccc(NC(=O)NC(=S)NC(=O)c2ccccc2)cc1,?,-4%,-9%,-5%,11%,-4%,11%,-6.4%
C[C@H]1[C@H](C)CC[C@]2(C(=O)O)CC[C@]3(C)C(=CC[C@@H]4[C@@]5(C)CC[C@H](O)C(C)(C)[C@@H]5CC[C@]43C)[C@H]12,.,.,56%[18.4 µM],1%,-24%,0%,.,.
COCCCNC(=O)CN(c1cccc(Cl)c1C)S(C)(=O)=O,9%,?,14%,9%,-25%,0%,-7%,2.1%
COC(=O)C(O)(c1ccc(NC(=S)NC(=O)c2ccc(Cl)cc2Cl)c(C)c1)C(F)(F)F (stereo unspecified),5.8µM*,-3%,8%,-60%,?,-15%,?,-6.7%
COc1ccc(SCc2cc(=O)c3cc(Cl)ccc3[nH]2)cc1,-6%[46.1 µM],-6%,.,.,?,.,.,-0.2%
Cc1ccc2[nH]c(=O)c3cc(C(=O)NCCc4ccc(Cl)cc4)sc3c2c1,-8%[46.1 µM],8%,.,.,-14%,.,10%[46.1 µM],-4.0%
CCOc1ccccc1NC(=O)C1=C(C)Nc2ncnn2C1c1ccc(NC(C)=O)cc1 (stereo unspecified),13%[46.1 µM],8%,.,.,3%,.,.,-0.3%
CS(=O)(=O)N1CC2CCCN2c2cc(C(F)(F)F)ccc21 (stereo unspecified),-22%[46.1 µM],.,-9%,0%,-20%,15%,?,.
CCCCCn1c(SCCOCC)nc2c1c(=O)[nH]c(=O)n2C,.,9%,2%,2%,-15%,-8%,.,4.9%
Cc1nc(NC(=O)c2ccco2)sc1C(=O)O,-29%,.,?,-10%,0%,-7%,-10%[46.1 µM],.
COc1cc(C)c(Br)cc1S(=O)(=O)NCc1ccccc1,-1%,-5%,7%,1%,.,-16%,7%,-4.5%
Cc1c(C(=O)N(C)C(C)c2ccncn2)oc2c(F)cccc12 (stereo unspecified),.,.,10%,2%,42%[activator],4%,.,.
CC(C)(C)c1ccc2c(c1)N(CC(=O)N1CCOCC1)C(=O)CO2,-8%,.,2%,1%,-16%,18%,10%,.

Shown with two lines to a compound: entries from further up.
Results follow in this order: LASV entry inh	Cruzain inh noDet	RE007 growth inh	SARS PLP yeast	2A StopGo	NS1 inh	Marburg entry inh	Cruzain Triton
> COC(=O)C(O)(c1ccc(NC(=S)NC(=O)c2ccc(Cl)cc2Cl)c(C)c1)C(F)(F)F (stereo unspecified)
  5.8µM*	-3%	8%	-60%	?	-15%	?	-6.7%
> COc1ccc(SCc2cc(=O)c3cc(Cl)ccc3[nH]2)cc1
  -6%[46.1 µM]	-6%	.	.	?	.	.	-0.2%
> Cc1ccc2[nH]c(=O)c3cc(C(=O)NCCc4ccc(Cl)cc4)sc3c2c1
  -8%[46.1 µM]	8%	.	.	-14%	.	10%[46.1 µM]	-4.0%
> CCOc1ccccc1NC(=O)C1=C(C)Nc2ncnn2C1c1ccc(NC(C)=O)cc1 (stereo unspecified)
  13%[46.1 µM]	8%	.	.	3%	.	.	-0.3%
> CS(=O)(=O)N1CC2CCCN2c2cc(C(F)(F)F)ccc21 (stereo unspecified)
  -22%[46.1 µM]	.	-9%	0%	-20%	15%	?	.
> CCCCCn1c(SCCOCC)nc2c1c(=O)[nH]c(=O)n2C
  .	9%	2%	2%	-15%	-8%	.	4.9%

Continuation.
compound,LASV entry inh,Cruzain inh noDet,RE007 growth inh,SARS PLP yeast,2A StopGo,NS1 inh,Marburg entry inh,Cruzain Triton
O=C(CSc1nc(Nc2ccccc2)nc(N2CCOCC2)n1)Nc1cccc([N+](=O)[O-])c1,?,.,3%,2%,-16%,-1%,?,.
O=C(CN(C(=O)c1ccccc1Cl)C1CCCCC1)Nc1ccc(Cl)c([N+](=O)[O-])c1,?,-2%,-1%,-7%,-19%,26%,?,0.6%
CCN(CC)S(=O)(=O)c1ccc2oc(C(=O)N3CCc4ccccc4C3)c(C)c2c1,?,14%,28%,2%,0%,28%,1%,-3.2%
O=C(Nc1nnc(SCc2ccc(F)cc2)s1)C1Cc2ccccc2CN1C(=O)c1ccco1 (stereo unspecified),11%,?,7%,-1%,-27%,7.9µM*,?,-21%
C=CCCC1(CC(C)C)C(=O)NC(=S)NC1=O,4%,.,10%,.,0%,.,8%,.
CC(C)C1NC(=S)N(Cc2ccccc2)C1=O (stereo unspecified),6%,-4%,-12%,11%,-2%,-15%,?,3.8%
CN(C)C(=O)OCc1n(C)cc[n+]1C,1%,3%,15%,5%,-18%,-7%,-3%,0.9%
COc1cccc(-c2cc(C(=O)Nc3c(C)nn(Cc4ccccc4)c3C)no2)c1,-9%,17%,-8%,-24%,-14%,-57%,?,-2.9%
Cc1noc(C)c1COc1ccc(C(=O)O)cc1,-7%,.,6%,-1%,-6%,2%,-5%[46.1 µM],.
COc1c(-c2ccc(O)cc2)oc2cc(O)cc(O)c2c1=O,.,.,-13%,0%,-1%,11%,.,.
COc1ccc(CCNC(=O)c2cc(-c3ccco3)nc3ccccc23)cc1,?,.,-16%,.,-22%,.,-20%,.
COc1cccc(-c2cc(C(=O)N3CCN(S(=O)(=O)c4ccccc4)CC3)[nH]n2)c1,.,.,5%,?,?,16%,.,.
COc1ccc(NC(=O)Cn2c(SCc3c(F)cccc3Cl)nc3ccncc32)cc1OC,?,10%,.,.,-15%,.,22%[46.1 µM],-8.3%
COc1ccccc1OCCNC(=O)c1c(-c2ccccc2Cl)noc1C,-5%,.,2%,-1%,-12%,7%,-30%,.
COc1ccc(C(=O)NN=C2CCCC2)cc1,.,.,6%,-5%,5%,6%,.,.
CCOC(=O)c1cc(-c2ccc(C)cc2)n(CC(=O)NCc2ccco2)c1C,.,-6%,-9%,7%,-7%,5%,.,3.6%
c1cncc(C2Nc3ccccc3-c3nc4ccccc4n32)c1 (stereo unspecified),-13%,0%,-15%,-13%,20%,-32%,-3%,-17%
CCn1c(=O)c(=O)[nH]c2cc(C(=O)Nc3ccc(S(=O)(=O)N4CCCC4)cc3)ccc21,12%,-27%,-1%,-1%,11%,-1%,11%,-4.6%
COC(=O)[C@@H]1C[C@H]1[C@@H](NS(=O)(=O)c1ccccc1)c1ccccc1,-2%,-3%&-7%,-3%,10%,0%,-7%,1%,-0.8%&0.5%
CCc1nnc(NC(=O)CSc2nc3ccccc3o2)s1,12%,-9%,-6%,12%,-9%,-12%,7%,6.8%
Cn1ncc(Cl)c1C(=O)NC1CCCC1,.,.,-12%,-5%,-25%,-7%,.,.
Cc1ccccc1CN1CCN(CC(=O)NCc2ccc3c(c2)OCO3)C1=O,-12%,-3%,10%,-11%,22%,-26%,15%,2.4%
COc1cccc(-c2nnc(-c3ccc(C(F)(F)F)cc3)o2)c1OC,?,?,0%,-5%,2%,-2%,?,-4.8%
O=S(=O)(c1ccc2nc(COc3ccccc3)[nH]c2c1)N1CCOCC1,-36%,-3%,3%,-2%,.,0%,-3%,2.3%
CCN1CCCC1CNC(=O)C(=O)Nc1ccccc1 (stereo unspecified),-6%[46.1 µM],.,-28%,1%,27%,.,?,.
CCCCNC(=O)Cc1c(OC)ccc2cc(Br)ccc12,-8%,-10%,-4%,-20%,?,-19%,7%,-1.3%
O=C(Cn1ncc2c3ccccc3n(Cc3cccc(Cl)c3)c2c1=O)N1CCC2(CC1)OCCO2,?,?,0%,0%,-20%,?,-13%&-13%,-8.7%
Oc1ccc(NCc2ccccc2OCc2ccccc2Cl)cc1,-15%[46.1 µM],-12%,.,.,3%,.,-2%[46.1 µM],-15%

Record cards (already shown). Order of screens: LASV entry inh	Cruzain inh noDet	RE007 growth inh	SARS PLP yeast	2A StopGo	NS1 inh	Marburg entry inh	Cruzain Triton
Entry for Cc1ccccc1CN1CCN(CC(=O)NCc2ccc3c(c2)OCO3)C1=O → -12%	-3%	10%	-11%	22%	-26%	15%	2.4%
Entry for Cn1ncc(Cl)c1C(=O)NC1CCCC1 → .	.	-12%	-5%	-25%	-7%	.	.
Entry for O=C(Cn1ncc2c3ccccc3n(Cc3cccc(Cl)c3)c2c1=O)N1CCC2(CC1)OCCO2 → ?	?	0%	0%	-20%	?	-13%&-13%	-8.7%
Entry for O=S(=O)(c1ccc2nc(COc3ccccc3)[nH]c2c1)N1CCOCC1 → -36%	-3%	3%	-2%	.	0%	-3%	2.3%
Entry for COc1cccc(-c2nnc(-c3ccc(C(F)(F)F)cc3)o2)c1OC → ?	?	0%	-5%	2%	-2%	?	-4.8%

High-throughput results: PubChem, National Center for Advancing Translational Sciences (NCATS)
